Screens (PubChem BioAssay)
NOMO-1 viab: STK33 inhibitor candidate reducing NOMO-1 cell viability. inhibition, % (no concentration beside the values). NOMO-1 AML viability, CellTiter-Glo luminescence, 72 h. actives 7.5% (n = 37,000). AID 2330;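 active means most replicates above 80%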;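 further: wells of about 30 µL received 25 nL stock; 0% = median of vehicle wells and 100% = reference inhibitor level; the first replicate is given; inactives centre near 10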
Numbers without * were called inactive. These rows are one share of the data; rates above refer to the full screens.

cpd	compound	NOMO-1 viab
1	C[C@H]1CN([C@@H](C)CO)C(=O)c2cccc(NC(=O)C3CCOCC3)c2O[C@H]1CN(C)Cc1ccccc1	15.0
2	O=c1c(OC2OC(CO)C(O)C(O)C2OC2OC(CO)C(O)C(O)C2OC2OC(CO)C(O)C(O)C2O)c(-c2ccc(O)c(O)c2)oc2cc(O)cc(O)c12 (configuration not stated)	31.1
3	Cc1noc(C)c1NC(=O)N(C)C[C@H]1Oc2c(NC(=O)C3CCOCC3)cccc2C(=O)N([C@@H](C)CO)C[C@H]1C	11.4
4	COc1ccc(CN(C)C[C@H]2Oc3c(NC(=O)C4CC4)cccc3C(=O)N([C@@H](C)CO)C[C@@H]2C)cc1	8.3
5	O=C(CSc1nc2ccc(NC(=O)c3ccccc3Cl)cc2s1)Nc1ccc(F)cc1	7.6
6	C[C@H]1CN([C@@H](C)CO)C(=O)Cc2cc(NC(=O)Cn3cnnn3)ccc2O[C@@H]1CN(C)S(=O)(=O)c1cn(C)cn1	-1.0
7	O=C(Nc1ccc(N2CCCCC2)cc1)c1ccncc1	41.1
8	C[C@H](CO)N1C[C@H](C)[C@@H](CN(C)C(=O)Nc2ccc(C(F)(F)F)cc2)Oc2ccc(NC(=O)C3CCCCC3)cc2C1=O	12.3
9	C[C@@H]1CN([C@@H](C)CO)C(=O)c2cccc(NS(C)(=O)=O)c2O[C@H]1CN(C)Cc1ccc(Oc2ccccc2)cc1	3.6
10	Cc1ccc(S(=O)(=O)Nc2ccc3c(c2)C(=O)N([C@H](C)CO)C[C@H](C)[C@H](CN(C)S(C)(=O)=O)O3)cc1	5.6
11	C[C@@H]1CN([C@@H](C)CO)C(=O)c2cc(NC(=O)Cc3ccccc3)ccc2O[C@@H]1CN(C)S(=O)(=O)c1ccc(F)cc1	-7.6
12	CNC[C@H]1Oc2ccc(NS(=O)(=O)c3ccc(C)cc3)cc2CC(=O)N([C@@H](C)CO)C[C@H]1C	6.5
13	C[C@H](CO)N1C[C@H](C)[C@@H](CN(C)Cc2ccc(Cl)c(Cl)c2)Oc2c(NC(=O)Nc3cccc4ccccc34)cccc2C1=O	115.2*
14	C[C@H]1CN([C@@H](C)CO)C(=O)Cc2cc(NC(=O)NC3CCCCC3)ccc2O[C@H]1CN(C)Cc1ccc(-c2ccccc2)cc1	113.8*
15	COc1cccc(NC(=O)CSc2nnc(-c3ccc(Cl)cc3)n2C)c1	14.7
16	C/C(=C\CC(C)(C)/C=C/Cc1ccoc1)C(=O)O	-3.1
17	Cc1ccc(C(C)C)c(OCC(=O)Nc2ccccc2C#N)c1	17.0
18	C[C@@H]1CN([C@H](C)CO)C(=O)c2cccc(NC(=O)Nc3ccc(F)cc3)c2O[C@@H]1CN(C)C(=O)NC1CCCCC1	26.0
19	Cc1cc(Cl)c(S(=O)(=O)Nc2cccc(Br)c2)cc1OCC(N)=O	-8.3
20	C[C@@H]1CN([C@@H](C)CO)C(=O)Cc2cc(NC(=O)Cc3ccccc3)ccc2O[C@@H]1CN(C)C(=O)NC1CCCCC1	0.9
21	C[C@H](CO)N1C[C@H](C)[C@H](CN(C)Cc2ccc(C(F)(F)F)cc2)Oc2ccc(NC(=O)Nc3ccc4c(c3)OCO4)cc2CC1=O	103.9*
22	O=C(CC1NC2CCCCC2NC1=O)Nc1ccc(Cl)c(Cl)c1 (configuration not stated)	-0.6
23	CC(=O)N[C@@H](Cc1c[nH]c2ccccc12)C(N)=O	16.8
24	C[C@H](CO)N1C[C@H](C)[C@@H](CN(C)C(=O)Nc2ccc(C(F)(F)F)cc2)Oc2c(NS(=O)(=O)c3ccccc3)cccc2C1=O	39.9
25	COc1ccc(S(=O)(=O)Nc2ccc3c(c2)CC(=O)N([C@H](C)CO)C[C@@H](C)[C@H](CN(C)C(=O)Nc2ccc(F)cc2)O3)cc1	-10.6
26	COc1ccc(S(=O)(=O)N(C)CC(=O)Nc2cc(C(F)(F)F)ccc2Cl)cc1C	19.4
27	C[C@H](CO)N1C[C@H](C)[C@H](CN(C)Cc2ccncc2)Oc2ccc(NS(=O)(=O)c3cn(C)cn3)cc2CC1=O	5.4
28	C[C@H]1CN([C@@H](C)CO)C(=O)c2cccc(NC(=O)Nc3ccc(F)cc3)c2O[C@H]1CN(C)Cc1ccc(C(F)(F)F)cc1	61.0
29	C[C@H](CO)N1C[C@H](C)[C@@H](CN(C)S(=O)(=O)c2ccc(Cl)cc2)Oc2c(NS(=O)(=O)c3ccccc3)cccc2C1=O	7.6
30	Cc1noc(C)c1S(=O)(=O)Nc1ccc2c(c1)C(=O)N([C@H](C)CO)C[C@H](C)[C@H](CN(C)Cc1ccc(Oc3ccccc3)cc1)O2	42.1
31	C[C@@H]1CN([C@@H](C)CO)C(=O)c2cccc(NC(=O)c3nc4ccccc4s3)c2O[C@H]1CN(C)C(=O)Nc1ccccc1	17.5
32	Cc1ccc(S(=O)(=O)Nc2cccc3c2O[C@@H](CN(C)S(=O)(=O)c2cn(C)cn2)[C@@H](C)CN([C@H](C)CO)C3=O)cc1	30.7
33	COc1ccc(NC(=O)N(C)C[C@H]2Oc3c(NC(=O)Nc4ccc5c(c4)OCO5)cccc3C(=O)N([C@H](C)CO)C[C@@H]2C)cc1	9.2
34	C[C@H]1CN([C@@H](C)CO)C(=O)c2cccc(NC(=O)c3ccncc3)c2O[C@@H]1CN(C)Cc1ccc2c(c1)OCO2	1.0
35	COc1ccccc1NC(=O)Cn1nc(C)c([N+](=O)[O-])c1C	11.7
36	C[C@H](CO)N1C[C@H](C)[C@H](CN(C)C(=O)NC2CCCCC2)Oc2ccc(NC(=O)CCN3CCOCC3)cc2CC1=O	-4.8
37	C[C@@H]1CN([C@@H](C)CO)C(=O)c2cc(N(C)C)ccc2O[C@@H]1CN(C)Cc1ccc(C(F)(F)F)cc1	25.4
38	C[C@@H]1CN([C@@H](C)CO)C(=O)c2cc(N(C)C)ccc2O[C@@H]1CN(C)S(=O)(=O)c1ccccc1	-21.7
39	Cc1ccc(F)cc1NC(=O)CSc1nc2ccccc2s1	31.8
40	COc1ccc(NC(=O)CSc2nc3c(c(-c4cccs4)c2C#N)CCCC3)cc1	37.0
41	COc1ccc(NC(=O)Nc2cccc3c2O[C@H](CN(C)C(=O)NC(C)C)[C@@H](C)CN([C@H](C)CO)C3=O)cc1	2.5
42	Cc1noc(C)c1NC(=O)N(C)C[C@@H]1Oc2c(NC(=O)c3ccncc3)cccc2C(=O)N([C@@H](C)CO)C[C@H]1C	12.9
43	C[C@H]1CN([C@@H](C)CO)C(=O)Cc2cc(NC(=O)C3CC3)ccc2O[C@@H]1CN(C)C(=O)Nc1ccc2c(c1)OCO2	16.4
44	O=C(O)CNS(=O)(=O)c1cc(Cl)c(Cl)cc1Cl	-25.7
45	CNC[C@H]1Oc2c(NS(=O)(=O)c3ccccc3)cccc2C(=O)N([C@@H](C)CO)C[C@H]1C	21.7
46	C[C@@H]1CCCCO[C@@H](CN(C)C)[C@@H](C)CN([C@H](C)CO)C(=O)c2cc(NC(=O)c3ccccc3)ccc2O1	122.6*
47	CC(C)NC(=O)N(C)C[C@@H]1Oc2ccc(NC(=O)C3CCCCC3)cc2CC(=O)N([C@H](C)CO)C[C@@H]1C	27.6
48	Cc1cc(C)nc(SCc2nnnn2-c2ccccc2)n1	4.8
49	Cc1cccc(NC(=O)CN(c2ccc(Oc3ccccc3)cc2)S(C)(=O)=O)c1C	8.6
50	CCOc1ccc(C(=O)NCc2nc(-c3ccccc3)no2)cc1	16.9

More compounds follow:
cpd	compound	NOMO-1 viab
51	Cc1noc(C)c1NC(=O)N(C)C[C@H]1Oc2c(NC(=O)c3ccc(-c4nccs4)cc3)cccc2C(=O)N([C@@H](C)CO)C[C@H]1C	-11.4
52	CCC(=O)c1ccccc1OCCCN1C(=O)NC(C)(C)C1=O	3.0
53	COc1ccccc1CC(CC(=O)O)C(=O)O (configuration not stated)	-3.1
54	C[C@@H]1CN([C@H](C)CO)C(=O)c2cc(NS(C)(=O)=O)ccc2O[C@H]1CN(C)Cc1ccc(C(=O)O)cc1	6.0
55	Cc1ccc(Cl)cc1NC(=O)CN(c1ccccc1F)S(C)(=O)=O	-12.6
56	O=C(COc1ccc(Cl)cc1Br)Nc1ccccc1C(=O)Nc1ccccc1	29.9
57	COc1cc([N+](=O)[O-])ccc1NC(=O)CSc1nc(C)cc(C(F)(F)F)n1	14.5
58	C[C@@H]1CN([C@@H](C)CO)C(=O)Cc2cc(NC(=O)CCCCCC(=O)Nc3ccccc3N)ccc2O[C@@H]1CN(C)S(=O)(=O)c1cccs1	26.0
59	COC(=O)CCN(C(=O)c1ccc(C)c([N+](=O)[O-])c1)c1ccccn1	2.8
60	Cc1ccc(S(=O)(=O)NCCSc2ncc(-c3ccc([N+](=O)[O-])cc3)[nH]2)cc1	21.0
61	C[C@H]1CN([C@@H](C)CO)C(=O)c2cc(NC(=O)CCCCCC(=O)Nc3ccccc3N)ccc2O[C@H]1CN(C)Cc1ccc2c(c1)OCO2	22.9
62	CC(C)NS(=O)(=O)c1ccc(OCC(=O)O)c(Cl)c1	14.5
63	C[C@@H]1CN([C@H](C)CO)C(=O)c2cc(N(C)C)ccc2O[C@@H]1CN(C)Cc1ccc(-c2ccccc2)cc1	32.6
64	C[C@H](CO)N1C[C@H](C)[C@H](CN(C)Cc2ccc(Oc3ccccc3)cc2)Oc2ccc(NC(=O)c3ccncc3)cc2C1=O	19.8
65	Cn1nnnc1SCC(=O)Nc1ccc(Oc2ccccc2)cc1	19.5
66	N#Cc1cc(C#N)c(SCC(=O)NC2CCCCC2)nc1N	4.5
67	CCc1cccc(C)c1NC(=O)CSc1nc2cc(C)cc(-n3nc4ccccc4n3)c2o1	1.9
68	CCn1c(SCC(=O)Nc2ccc3c(c2)OCCO3)nnc1-c1ccccc1	26.5
69	COc1ccccc1NC(=O)Cn1cnc2c1c(=O)n(C)c(=O)n2C	4.3
70	CCc1nc(SCC(=O)Nc2ccccc2Cl)n[nH]1	-29.9
71	C[C@H]1CN([C@@H](C)CO)C(=O)Cc2cc(NC(=O)Nc3cccc4ccccc34)ccc2O[C@H]1CN(C)S(=O)(=O)c1ccc(Cl)cc1	42.2
72	C[C@@H]1CN([C@@H](C)CO)C(=O)Cc2cc(NS(=O)(=O)c3ccc(F)cc3)ccc2O[C@@H]1CN(C)C(=O)Nc1ccc(F)cc1	-14.8
73	CC(C)NC(=O)Nc1ccc2c(c1)C(=O)N([C@@H](C)CO)C[C@H](C)[C@@H](CN(C)C(=O)Nc1ccc3c(c1)OCO3)O2	20.8
74	C[C@H](CO)N1C[C@H](C)[C@H](CN(C)C(=O)Nc2ccc(F)cc2)Oc2ccc(NC(=O)Nc3ccc(F)cc3)cc2C1=O	18.3
75	CN(C)S(=O)(=O)c1ccc(NC(=O)CCC(=O)O)cc1	4.5
76	CN(C)CCNc1cn[nH]c(=O)c1Cl	28.0
77	C[C@@H]1CN([C@H](C)CO)C(=O)c2cc(NS(=O)(=O)c3cccs3)ccc2O[C@@H]1CN(C)Cc1ccncc1	16.4
78	COc1ccc(S(=O)(=O)N(C)C[C@H]2Oc3c(NC(=O)C4CC4)cccc3C(=O)N([C@H](C)CO)C[C@H]2C)cc1	-1.0
79	COc1ccc2ncnc(NCc3ccc4c(c3)OCO4)c2c1	22.0
80	C[C@@H]1CN([C@H](C)CO)C(=O)Cc2cc(NS(=O)(=O)c3ccccc3)ccc2O[C@H]1CN(C)C(=O)Nc1ccc2c(c1)OCO2	27.9

Structures from the list above containing a COOH group:
cpd	compound	NOMO-1 viab
16	C/C(=C\CC(C)(C)/C=C/Cc1ccoc1)C(=O)O	-3.1
44	O=C(O)CNS(=O)(=O)c1cc(Cl)c(Cl)cc1Cl	-25.7
53	COc1ccccc1CC(CC(=O)O)C(=O)O (configuration not stated)	-3.1
54	C[C@@H]1CN([C@H](C)CO)C(=O)c2cc(NS(C)(=O)=O)ccc2O[C@H]1CN(C)Cc1ccc(C(=O)O)cc1	6.0
62	CC(C)NS(=O)(=O)c1ccc(OCC(=O)O)c(Cl)c1	14.5
75	CN(C)S(=O)(=O)c1ccc(NC(=O)CCC(=O)O)cc1	4.5

(more compounds)
cpd	compound	NOMO-1 viab
81	CC(=O)Nc1ccc(NC(=O)CN(c2ccc(C)cc2C)S(C)(=O)=O)cc1	7.0
82	COc1ccc(CN(C)C[C@H]2Oc3ccc(NS(=O)(=O)c4c(C)noc4C)cc3C(=O)N([C@@H](C)CO)C[C@@H]2C)cc1	1.5
83	COc1ccc(OC)c(NC(=O)Cn2cc(C(=O)c3cccs3)c3ccccc32)c1	25.5
84	COc1ccc(NC(=O)CSc2nnnn2C)cc1Cl	2.6
85	CNC[C@@H]1Oc2ccc(NC(=O)Nc3ccc(OC)cc3)cc2CC(=O)N([C@H](C)CO)C[C@@H]1C	-5.9
86	N#Cc1c(C(F)(F)F)cc(-c2cccs2)nc1SCC(=O)Nc1sc2c(c1C#N)CCC2	74.4
87	CC(=O)O[C@]1(C(C)=O)CC[C@H]2[C@@H]3C=C(C)C4=CC(=O)CC[C@@H]4[C@H]3CC[C@@]21C	3.5
88	C[C@@H]1CN([C@H](C)CO)C(=O)Cc2cc(NC(=O)Nc3cccc4ccccc34)ccc2O[C@@H]1CN(C)C(=O)Nc1ccc(F)cc1	12.7
89	Cc1cc(C)cc(OCC(=O)Nc2cccc(-c3nnc(-c4ccccc4)o3)c2)c1	42.7
90	COc1ccc(NC(=O)Nc2ccc3c(c2)CC(=O)N([C@H](C)CO)C[C@@H](C)[C@@H](CN(C)S(=O)(=O)c2ccc(OC)cc2)O3)cc1	-14.0
91	CCOC(=O)c1c(NC(=O)c2ccc(Cn3cc(Br)cn3)o2)sc2c1CCCC2	14.7
92	C[C@@H]1CN([C@@H](C)CO)C(=O)c2cccc(NS(=O)(=O)c3cn(C)cn3)c2O[C@@H]1CN(C)S(C)(=O)=O	5.0
